KCNQ2 block – KCNQ2 potassium channel inhibitors, primary screen, cell-based, CHO-K1, FluxOR thallium flux, B-score (AID 2156) | Potassium voltage-gated channel subfamily KQT member 2 (Rattus norvegicus), O88943 | 20 min; active compounds read low; only compounds with negative scores are shown here; some inactives read as strong as hits | B-score at 10 µM | 310,000 tested, 1.1% active;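 active = fluorescence ratio B-score at most minus 3 library SDs, with starting brightness B-score within 2 library SDs, cut at about -5.5 in these data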
Target sequence (O88943 whole entry, looked up): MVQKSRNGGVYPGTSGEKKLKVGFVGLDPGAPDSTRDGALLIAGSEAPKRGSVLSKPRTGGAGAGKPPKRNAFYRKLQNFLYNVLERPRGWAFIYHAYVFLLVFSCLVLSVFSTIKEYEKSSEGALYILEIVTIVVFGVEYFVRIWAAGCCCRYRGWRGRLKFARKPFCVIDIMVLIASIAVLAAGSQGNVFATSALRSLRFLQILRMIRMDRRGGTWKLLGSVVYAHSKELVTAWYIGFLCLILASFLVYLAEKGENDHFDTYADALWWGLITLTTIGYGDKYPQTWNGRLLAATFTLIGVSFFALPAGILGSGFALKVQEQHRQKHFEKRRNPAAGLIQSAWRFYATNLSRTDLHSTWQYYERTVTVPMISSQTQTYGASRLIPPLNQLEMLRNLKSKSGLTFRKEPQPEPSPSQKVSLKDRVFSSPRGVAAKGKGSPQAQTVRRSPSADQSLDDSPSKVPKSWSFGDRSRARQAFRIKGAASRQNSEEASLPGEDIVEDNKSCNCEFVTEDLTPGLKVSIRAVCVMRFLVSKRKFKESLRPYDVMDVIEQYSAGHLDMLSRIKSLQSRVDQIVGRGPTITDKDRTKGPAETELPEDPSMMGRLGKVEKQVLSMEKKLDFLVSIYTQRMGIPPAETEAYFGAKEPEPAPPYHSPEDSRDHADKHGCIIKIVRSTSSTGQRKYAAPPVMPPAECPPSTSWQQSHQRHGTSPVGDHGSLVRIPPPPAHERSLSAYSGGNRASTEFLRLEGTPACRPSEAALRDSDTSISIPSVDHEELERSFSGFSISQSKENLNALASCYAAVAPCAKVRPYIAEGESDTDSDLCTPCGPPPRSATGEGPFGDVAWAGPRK
KCNQ2 block baseline – further read-out of KCNQ2 block, marked with its call; B-score; measured here: initial fluorescence intensity artifact check;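 brightness before thallium and not channel activity; 0 = typical well and far values either way flag optical interference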
Numbers without * were called inactive; i = inactive.

cpd | Structure | KCNQ2 block | KCNQ2 block baseline
1 | CCc1ccc(OCc2ccc(C(=O)NCc3ccccn3)o2)cc1 | i | 0.26
2 | COc1cc(C2CC(=O)Oc3c2c(=O)n(C)c2ccccc32)cc(OC)c1OC (configuration not stated) | i | -0.41
3 | O=C(CC(C(=O)N1CCc2ccccc21)n1ccnc1)N1CCc2ccccc2C1 (configuration not stated) | i | 2.3
4 | O=C(NCCCC1CCCC1)C1CCC(=O)N(Cc2ccccc2F)C1 (configuration not stated) | i | 0.32
5 | Cc1ccc(C2=NN(CC(=O)NCCN(CC(C)C)CC(C)C)C(=O)CC2)cc1 | i | -0.16
6 | CCCn1c(N)c(N(CCOC)C(=O)c2ccc(F)cc2F)c(=O)[nH]c1=O | i | -0.21
7 | C=CCn1c(SCC)nc2sc3c(c2c1=O)CCc1ccccc1-3 | i | 1.5
8 | CC(C)CC(C(=O)NC(C)(C)C)N(Cc1cccs1)C(=O)c1snc(C(N)=O)c1N (configuration not stated) | i | -0.69
9 | O=C(Nc1ccccn1)c1csc2c1CCCC2 | i | 3.2
10 | COc1ccc(O)c(/C=N/NC(=O)c2c(C)nnn2-c2nonc2N)c1 | i | 1.6
11 | COc1cc(C(Nc2ccccn2)c2ccc3ccc(C)nc3c2O)cc(OC)c1O (configuration not stated) | i | -1.3
12 | CC1CCN(C(=O)c2cccc(NC(=O)c3cccs3)c2)CC1 | i | -0.65
13 | CSc1cccc(NC(=O)CCNC(=O)c2ccco2)c1 | i | 1.8
14 | O=C(Nc1cc(C(F)(F)F)ccc1Cl)C(Sc1n[nH]c(=O)[nH]c1=O)c1ccccc1 (configuration not stated) | i | 1.6
15 | COc1ccccc1C(=O)Nc1ccccc1N1CCN(C(=O)c2ccc(Cl)cc2)CC1 | i | -5
16 | COc1ccccc1NC(=S)NCCc1ccc(S(N)(=O)=O)cc1 | i | -1.4
17 | O=C(N/C(=C/c1ccc(Br)cc1)c1nc2ccccc2[nH]1)c1ccco1 | i | -0.83
18 | CCc1ccc(C(=O)CN2C(=O)NC(C)(CCc3ccccc3)C2=O)cc1 (configuration not stated) | i | 0.28
19 | Cc1ccc(NC(=O)CSc2nnc(CNC(=O)c3ccccc3F)o2)cc1Cl | i | 2.6
20 | COc1ccc(-c2nc(CN(C)C(C)c3ccon3)c(C)o2)c(C)c1C (configuration not stated) | i | 0.74
21 | Cc1ccc(CNC(=O)N2CCN(S(=O)(=O)c3ccccc3)CC2)cc1 | i | 0.27
22 | COc1ccccc1CCC(=O)Oc1ccc(C#N)cc1OC | i | -1.7
23 | O=C(CCC(=O)n1ncc2ccccc21)NCc1ccccc1Cl | i | -0.84
24 | O=C(Cn1cnc2c(nnn2Cc2ccccc2F)c1=O)NCC1CCCO1 (configuration not stated) | i | 2
25 | O=C(OCc1nnc(-c2ccccc2)o1)c1ccc2ccccc2n1 | i | 0.11

3 successive records from above, quoted:
cpd | Structure | KCNQ2 block | KCNQ2 block baseline
1 | CCc1ccc(OCc2ccc(C(=O)NCc3ccccn3)o2)cc1 | i | 0.26
2 | COc1cc(C2CC(=O)Oc3c2c(=O)n(C)c2ccccc32)cc(OC)c1OC (configuration not stated) | i | -0.41
3 | O=C(CC(C(=O)N1CCc2ccccc21)n1ccnc1)N1CCc2ccccc2C1 (configuration not stated) | i | 2.3

The list continues.
cpd | Structure | KCNQ2 block | KCNQ2 block baseline
26 | CSC1=C(C#N)C(c2ccncc2)C(C(=O)Nc2ccccc2)=C(C)N1 (configuration not stated) | i | -0.07
27 | CCN(Cc1ccccc1)C(=O)CSc1nc(C)cc(C)c1C#N | i | -0.61
28 | CCOC(=O)N1CCN(C(=O)COc2ccc(Cl)cc2C)CC1 | i | -0.2
29 | Cc1ccc(C)c(NC(=O)C2=CCN(S(=O)(=O)c3ccc(F)cc3)CC2)c1 | i | -0.41
30 | Cc1nn(CC(=O)Nc2ccc(N3CCOCC3)cc2)c(C)c1Br | i | -0.71
31 | COc1ccc(C[C@H]2CN3C(=NC[C@@H]3Cc3ccc(O)cc3)N2CCNC(=O)c2ccc(C)c(Br)c2)cc1 | i | -2.3
32 | COc1cc(C)c(C#N)c(OC)n1 | i | 1.9
33 | C=CCn1c(N)c(C(=O)Nc2cccc(C)c2)c2nc3ccccc3nc21 | i | -0.75
34 | O=C1Nc2ccccc2C1=Nc1ccc(Br)cc1 | i | -0.02
35 | CCCCC(=O)NCCNC(=O)c1cc(OCC(F)(F)F)ccc1OCC(F)(F)F | i | 0.08
36 | Clc1ccc(-c2cc3ccccc3nc2N2CCCC2)cc1 | i | -1.7
37 | CCCCN(C)C(=O)CCCCn1c(=O)[nH]c2cc(OCC)c(OCC)cc2c1=O | i | 0.62
38 | CCOC(=O)c1sc(-c2ccccc2)cc1NC(=O)c1ccc(S(=O)(=O)N(CCOC)CCOC)cc1 | i | 1.8
39 | Cc1ccccc1NC1=C(C(=O)c2ccccc2)N(C)S(=O)(=O)c2ccccc21 | -8.1* | -0.69*
40 | Cc1cc(Br)ccc1OCc1nc(-c2cccnc2)no1 | i | 2.8
41 | Cc1noc(C)c1CSc1nnc(-c2ccccc2)n1Cc1ccco1 | i | -2.3
42 | CN(C)/C=C/C(=O)c1ccc([N+](=O)[O-])c(CS(=O)(=O)c2ccc(Cl)cc2)c1 | i | 0.78
43 | Cc1nn(CCOc2ccccc2)c(=O)n1-c1ccc(F)cc1 | i | -0.04
44 | CC1CCC/C(=N/Nc2nc3ccccc3s2)C1 (configuration not stated) | i | 1.3
45 | O=C(CCl)NN1C(=O)NC(c2ccccc2)(c2ccccc2)C1=O | i | -1.4
46 | Cc1cc(C(=O)N/N=C/c2cc(Br)c(Br)o2)n[nH]1 | i | 0.73
47 | COC(=O)c1ccccc1NC(=O)CN(Cc1ccccc1)S(C)(=O)=O | i | 0.05
48 | COCCN1Cc2cccc(C(=O)Nc3ccc(-c4nc5ccccc5[nH]4)cc3)c2C1=O | i | 1.2
49 | COc1ccc(Br)cc1C(=O)N/N=C/c1ccc2c(c1)n(C)c(=O)n2C | i | 0.2
50 | Cc1nn(C)c2nc(-c3cccs3)cc(C(F)(F)F)c12 | i | 0.33

Compounds listed so far that have a cyano group (4):
cpd | Structure | KCNQ2 block | KCNQ2 block baseline
22 | COc1ccccc1CCC(=O)Oc1ccc(C#N)cc1OC | i | -1.7
26 | CSC1=C(C#N)C(c2ccncc2)C(C(=O)Nc2ccccc2)=C(C)N1 (configuration not stated) | i | -0.07
27 | CCN(Cc1ccccc1)C(=O)CSc1nc(C)cc(C)c1C#N | i | -0.61
32 | COc1cc(C)c(C#N)c(OC)n1 | i | 1.9

Later entries:
cpd | Structure | KCNQ2 block | KCNQ2 block baseline
51 | CCOC(=O)c1cnc(SCc2ccc(C)cc2)nc1N | i | 1.7
52 | O=C(OCC(=O)N1CCN(S(=O)(=O)c2ccc(Cl)cc2)CC1)C1CCC1 | i | 1.3
53 | O=C(Oc1cccnc1)c1cc(S(=O)(=O)N2CCOCC2)ccc1Cl | i | 0.18
54 | CN1CCN(/N=C/c2ccc(Br)cc2)CC1 | i | 1
55 | Cc1cccc(N2CCN(C(=O)c3ccoc3C)CC2)c1C | i | 0.03
56 | COc1c(/C=N/Nc2nc(N3CCCCC3)nc(N3CCCCC3)n2)cccc1[N+](=O)[O-] | i | 0.04
57 | COc1ccc(NC(=O)CSc2nc(O)cc(=O)n2-c2ccccc2)cc1 | i | 0.8
58 | COc1ccc(OC)c(S(=O)(=O)Nc2cccnc2)c1 | i | 1.9
59 | Cc1cccc(C2Nc3cccc4cccc(c34)N2)c1 | i | -0.73
60 | O=C(CSc1ncccc1-c1nc2ccccc2[nH]1)Nc1ccc2c(c1)OCCO2 | i | -0.63
61 | Cc1cccc(NC(=O)c2ccc(S(=O)(=O)N3CCC(C)CC3)cc2)n1 | i | -0.09
62 | COc1ccc(NC(=O)CCN2C(=O)[C@@H]3[C@H](C2=O)[C@H]2C=C[C@@H]3C2)cc1 | i | -0.15
63 | c1ccc(CCCc2nc(-c3cccnc3)no2)cc1 | i | -1.4
64 | Cc1ccc(S(=O)(=O)c2nnn3c2nc(NC2CCN(Cc4ccccc4)CC2)c2ccccc23)cc1C | i | -1.7
65 | O=C(c1ccccc1)c1ccc(OCC(=O)N2CCOCC2)cc1 | i | 2
66 | CCc1ccc(C2NC(c3ccc(CC)cc3)C([N+](=O)[O-])C(C)(C)C2[N+](=O)[O-])cc1 (configuration not stated) | i | 0.52
67 | O=C(Nc1ccccc1)N1CCN2C(=O)c3ccccc3C12c1ccccc1 (configuration not stated) | i | 0.61
68 | O=C(NCc1csc(-c2ccccc2)n1)c1cc(F)cc2c1OCOC2 | -6.1* | 1.9*
69 | COc1cccc(C(=O)C2CCCN(Cc3cccn3-c3ccccn3)C2)c1 (configuration not stated) | i | 1.2
70 | CCC(C)C(NC(=O)OC(C)(C)C)C(=O)NC(CC(C)C)C(N)=O (configuration not stated) | i | 0.34
71 | CCOC(=O)N1CCC(NC(=O)CN(C)S(=O)(=O)c2cc3c(cc2Cl)NC(=O)CO3)CC1 | i | -1.2
72 | O=C(Nc1nc2cc3c(cc2s1)OCO3)C1CCCCC1 | i | 0.02
73 | Cc1ccc(S(=O)(=O)NC(=O)NCCCCNC(=O)NS(=O)(=O)c2ccc(C)cc2)cc1 | i | 0.46
74 | COC(=O)C1C2C=CC3(CN(c4cccc(Cl)c4)C(=O)C13)O2 (configuration not stated) | i | 1.2
75 | CCOc1cc(NC(=O)c2ccccc2C)c(OCC)cc1NC(=O)C1=Cc2ccccc2OC1 | i | -0.17
76 | Cc1cccc(N(CC(=O)NC2CCCCC2)C(=O)c2c(C)noc2C)c1 | i | 0.05
77 | O=C(CC(C(=O)O)c1ccc(Cl)cc1)c1ccc(Cl)c(Cl)c1 (configuration not stated) | i | 0.08
78 | CC1(C)CN(C(Cc2ccccc2)C(N)=O)C1=O (configuration not stated) | i | 1.7
79 | CCc1nn(CCCC(=O)NC(C)c2ccccc2)c(=O)c2cc3occc3n12 (configuration not stated) | i | 2.7
80 | CC1CCN(CCCNC(=O)c2ccc(Cn3c(=S)[nH]c4ccc(Br)cc4c3=O)cc2)CC1 | i | -1.3
81 | Cc1ccccc1CSCC(=O)NCCSc1ccccn1 | i | 0.07
82 | CCOc1cc(/C=C2\CCCc3c2nc2ccccc2c3C(=O)O)ccc1OC | i | 19
83 | CCOC(=O)c1c(-c2ccc(F)cc2)csc1NC(=O)c1c(-c2ccccc2)noc1C | i | 1.8
84 | COCCN(Cc1cc2cc3c(cc2nc1Cl)OCO3)C(=O)Nc1ccc(OC)cc1 | i | 2.5
85 | O=C(Cn1c(=O)c2cccn2c2ccccc21)NCCc1ccc(Cl)cc1 | i | 0.68
86 | Nc1cc(=O)nc(SCC(=O)NC2CCCCC2)n1-c1ccccc1 | i | 0.66
87 | CC(=O)OCCN(CCCn1c(-c2ccncc2)nc2ccccc21)c1nc(CN2CCCCC2)cs1 | i | -0.06
88 | Cc1cccc(N2CCN(c3nc4ccc(Cl)cc4n4cnnc34)CC2)c1C | i | -1.9
89 | COc1ccc(/C=N/n2cnnc2)cc1Oc1nc(Cl)ncc1F | i | -0.6
90 | CN1CCN(C(=O)C2=C[C@@H](c3csc4ccccc34)C[C@@H](OCc3ccc(CO)cc3)O2)CC1 | i | 0.97
91 | O=[N+]([O-])c1ccc(N2CCN(Cc3cccc([N+](=O)[O-])c3)CC2)cc1 | i | 0.67
92 | COc1ccc(NS(=O)(=O)c2ccc(Br)s2)cc1OC | i | 0.03
93 | Cc1cc(C)c(S(=O)(=O)N2CCN(c3ccc([N+](=O)[O-])c(NCC4CCCO4)c3)CC2)c(C)c1 (configuration not stated) | i | 0.68
94 | COc1ccc(C2CC(C(F)(F)F)n3nc(C(=O)NCCCn4ccnc4)cc3N2)cc1OC (configuration not stated) | i | 1.3
95 | c1ccc(CSc2ccc(-c3cccs3)nn2)nc1 | i | 0.68
96 | C/C(=N/Nc1ccc(C)cc1)C1(C)N(O)C(C)(C)C(c2ccco2)=[N+]1[O-] (configuration not stated) | i | 1.1
97 | Cc1ccc(SCc2noc(-c3c(C)noc3C)n2)cc1 | i | 0.82
98 | COc1ccc(NC(=O)CN(C)C(=O)C2CC(=O)N(c3ccc4c(c3)OCCO4)C2)cc1 (configuration not stated) | i | 3.6
99 | O=[N+]([O-])c1ccc(O)c(C=Nc2cccc3ncccc23)c1 | i | 0.03
100 | O=C(CNC(=O)c1ccccc1Cl)NCC(c1cccs1)N1CCOCC1 (configuration not stated) | i | 0.62

The listing continues:
cpd | Structure | KCNQ2 block | KCNQ2 block baseline
101 | COc1ccc(C(=O)Nc2cc(Cl)ccc2OC(=O)c2ccc(OC)cc2)cc1 | i | -0.36
102 | COc1ccc(C(=O)Cn2cc([N+](=O)[O-])nc2C)cc1 | i | -0.36
103 | CCOC(=O)c1c2c3c(cccc3[nH]c1=O)C(=O)c1ccccc1-2 | i | 0.04
104 | Cc1ccc(S(=O)(=O)NNC(=O)c2ccc(O)cc2)cc1 | i | 1.1
105 | Cc1ccc(Sc2ccc(/C=N/O)cc2[N+](=O)[O-])cc1 | i | 0.41
106 | COc1ccc(NC(=O)NNC(=O)COc2ccc3ccccc3c2)cc1 | i | -0.1
107 | CCN(CC(=O)Nc1c(F)cccc1F)C(=O)c1cccc(S(=O)(=O)N2CCN(c3ccccc3)CC2)c1 | i | -1.1
108 | CC(C)c1cc(CNC(=O)CCc2nnc(CCCc3ccccc3)o2)on1 | i | 0.95
109 | COc1ccc(OC)c(S(=O)(=O)n2ccc(C)n2)c1 | i | 1.1
110 | Cc1cccc(NC(=S)NC2CC3CCCC(C2)N3CC(C)C)c1 (configuration not stated) | i | -0.02
111 | NS(=O)(=O)c1ccc(CCNS(=O)(=O)c2cccc(C(=O)O)c2)cc1 | i | -0.19
112 | Cc1ccc(C(c2c(C)[nH][nH]c2=O)c2c(C)[nH][nH]c2=O)cc1[N+](=O)[O-] | i | -1.3
113 | CCOc1ccc(CCNC(=O)c2cn(C)c3ccc(S(=O)(=O)N4CCOCC4)cc3c2=O)cc1OCC | i | -0.98
114 | C=CCOC(=O)C(C#N)c1nc2ccccc2nc1N1CCN(Cc2ccc3c(c2)OCO3)CC1 (configuration not stated) | i | 2.7
115 | Cc1nc(Cl)nc(N(C)c2ccccc2)c1[N+](=O)[O-] | i | -1
116 | O=C(COC(=O)c1ccccc1Br)NC1CCCC1 | i | -2.2

Screens: PubChem BioAssay, Johns Hopkins Ion Channel Center

Only part of the results is shown; rates above refer to the full screens.
